Screens from PubChem BioAssay.
MT1-MMP act inh – blocks activation of human MT1-MMP. HT1080 RFP-PRO-GFP cells, GFP/RFP ratio fluorescence, overnight; percent of plate control window, DMSO zero. P50281. 0.061% of 360,000 active. GFP/RFP ratio change, % at 20 µM;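 active = GFP/RFP ratio change of at least 30% with cell ATP level not reduced by more than half and red fluorescence within 50% of control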; also: strong numbers were not always called active
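Read-out: GFP/RFP fluorescence ratio; Test system: RFP-PRO-GFP reporter HT1080 cells; Compound dosing: single-point 20 µM compound, 1% DMSO; Times: overnight compound exposure at 37 °C.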
Rce1 inhib – inhibitors of yeast Ras-converting enzyme. Q03530. yeast membranes, quenched prenylated peptide cleavage fluorescence. calls only. 0.27% of 290,000 active. AID 2563;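 active = fall in fluorescence gain of 50% or more versus controls, with final raw signal at or below 3038400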;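 also: plate controls were neutral control wells for no effect and wells lacking membranes for full effect; tested at 10 µM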
Target sequence (Q03530 whole entry, looked up): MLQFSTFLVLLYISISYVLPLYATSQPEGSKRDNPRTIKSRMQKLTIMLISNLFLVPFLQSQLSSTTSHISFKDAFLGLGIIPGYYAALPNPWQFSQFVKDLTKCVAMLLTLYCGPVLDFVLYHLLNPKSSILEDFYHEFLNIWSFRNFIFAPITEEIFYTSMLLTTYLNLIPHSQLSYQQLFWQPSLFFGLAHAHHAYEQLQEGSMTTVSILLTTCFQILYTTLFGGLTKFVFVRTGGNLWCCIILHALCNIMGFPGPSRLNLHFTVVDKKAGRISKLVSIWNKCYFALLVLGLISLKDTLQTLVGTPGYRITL
Yeast UUG start – alters start codon recognition fidelity in yeast. S. cerevisiae UUG-firefly luciferase reporter, luminescence/redox ratio. activity score, % at 18.7 µM. 0.13% of 350,000 active. AID 602363;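 active = replicate mean at a twofold rise or more, about +100% in these data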;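 also: firefly luciferase made from a UUG start codon reports start codon fidelity; reporter light over untreated wells divided by growth signal over untreated wells; some hits fall short of that in this replicate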
eIF4H inh – inhibitors of RNA binding by human eIF4H; Q15056; eIF4H fluorescence polarization binding assay; inhibition, % at 35 µM; 0.94% of 290,000 active; AID 2012;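 active = 50% or more with normal probe brightness, or confirmed in later tests; about a fifth of its hits are not listed in these tables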;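 also: calls also rest on retests at 20 µM and on dose response follow-up; 0% = protein and probe with vehicle and 100% = probe without protein; strong numbers were not always called active; many hits fall short of the cut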
CSC inhib – blocks cancer stem cells; cancer stem cell-like cells viability, luminescence; inhibition, % at 7.5 µM; 1.1% of 300,000 active; AID 2717;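 active = mean at 75% or more and at least half the replicates too; tested in HMLE shEcad cells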;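 also: 0% = median of negative and 100% = median of positive control wells; the first replicate is given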
PABP polyA inh – PABP-poly(A) binding inhibition. P11940. PABP-poly(A) RNA binding, fluorescence polarization. inhibition, % at 35 µM. 1% of 290,000 active. AID 2014;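 active = 50% or more with normal probe brightness, or confirmed in later tests; about a fifth of its hits are not listed in these tables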;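 also: calls also rest on retests at 20 µM and on dose response follow-up; controls were probe without protein and protein plus probe with vehicle; some compounds called inactive have numbers as strong as hits; many hits fall short of the cut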
Target sequence (P11940 whole entry, looked up): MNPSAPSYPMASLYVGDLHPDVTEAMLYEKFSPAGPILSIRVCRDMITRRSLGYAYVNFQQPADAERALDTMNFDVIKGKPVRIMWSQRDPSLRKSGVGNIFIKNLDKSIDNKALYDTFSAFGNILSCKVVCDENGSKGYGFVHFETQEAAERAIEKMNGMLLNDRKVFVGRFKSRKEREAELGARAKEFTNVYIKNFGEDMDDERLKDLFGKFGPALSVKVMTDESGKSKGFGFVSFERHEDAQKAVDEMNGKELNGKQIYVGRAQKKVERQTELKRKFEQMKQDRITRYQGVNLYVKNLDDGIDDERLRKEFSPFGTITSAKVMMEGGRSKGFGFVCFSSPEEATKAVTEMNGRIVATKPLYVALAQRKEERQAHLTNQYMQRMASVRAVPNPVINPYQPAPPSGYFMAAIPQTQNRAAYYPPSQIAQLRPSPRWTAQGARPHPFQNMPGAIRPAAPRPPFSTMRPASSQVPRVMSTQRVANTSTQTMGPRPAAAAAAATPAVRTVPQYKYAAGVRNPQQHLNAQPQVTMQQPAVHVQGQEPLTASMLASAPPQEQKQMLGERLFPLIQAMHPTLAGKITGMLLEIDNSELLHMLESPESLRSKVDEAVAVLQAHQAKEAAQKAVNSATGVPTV
HIV Env fusion – blocks HIV Env-driven cell-cell fusion | HeLa-JRFL Env/CEM21 cell fusion, luciferase | inhibition, % at 12.3 µM | 1.1% of 360,000 active | AID 651610;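 active = mean replicate inhibition score of at least 50 and every replicate individually at or above 50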;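 also: 0% = plate neutral controls and 100% = maraviroc near 300 nM; one replicate is shown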
MT1-MMP act inh RFP – recorded beside MT1-MMP act inh, whose call it bears; RFP signal change, %; measured here: RFP expression control read;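 0 = vehicle wells; hits needed this value within 50% of zero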
Starred values were filed as active, the others as inactive; i = inactive; / = not tested or not shown.

SMILES	MT1-MMP act inh	MT1-MMP act inh RFP	Rce1 inhib	Yeast UUG start	eIF4H inh	CSC inhib	PABP polyA inh	HIV Env fusion
Cc1ccc(C)c(S(=O)(=O)N2CCN(C(=O)C3CC3C)CC2)c1 (stereo unspecified)	3.5	0.7	i	-1.7	/	-14.7	/	-2.5
Cn1c(N)c(C(c2ccccc2)c2c(N)n(C)c(=O)n(C)c2=O)c(=O)n(C)c1=O	-2.8	1.3	i	/	-5.7	0.8	7.4	/
Cc1noc(C)c1COc1ccc(C(=O)Nc2cccnc2)cc1	4.4	0.9	i	/	27.4	/	-7.8	-6.3
CC/C(=N\NC(=O)c1ccc(N(C)C)cc1)c1ccccc1	1.8	3.3	i	/	-6.5	0.6	5.3	-10.9
O=C(CSC(=S)N1CCOCC1)Nc1ncc2c(n1)CCCC2=O	1.0	3.8	i	/	-13.5	-10.9	8.5	-7.9
COc1cccc(-c2noc(-c3ccoc3C)n2)c1	-2.9	-2.9	i	/	2.4	/	24.7	-28.5
CC1CC(C)CN(C(C)C(=O)Nc2cc(S(=O)(=O)N3CCCCC3)ccc2Cl)C1 (stereo unspecified)	-1.9	-8.6	/	-5.6	/	36.2	/	4.1
CCOC(=O)c1ccc(Nc2cc(C)nc3nc(C)nn23)cc1	-3.0	4.1	i	-14.5	-1.3	-18.6	3.0	-3.9
Cc1ccc(C(=O)NCc2ccc(F)cc2)s1	-1.6	2.9	i	-1.8	/	2.5	/	2.5
CSc1ccc(/C=C/C(=O)OCC(=O)N2CCN(c3ccccc3)CC2)cc1	1.9	5.0	/	-2.8	/	/	/	-5.1
Cc1nn(C)cc1S(=O)(=O)Nc1cccc(Cl)c1	1.8	3.2	i	-1.8	-10.7	-8.2	-2.4	-0.4
CCc1ccc(NC(=O)C[n+]2cc(-c3ccc(C)cc3)n3c2CCC3)cc1	-1.8	-5.1	i	-12.8	-6.5	3.7	-0.1	-4.4
Cn1c(SCc2ccccc2)nnc1-c1cnccn1	1.0	-2.6	i	-20.0	5.9	-9.1	-5.4	16.9
CCC(C)(C)c1ccc(OCC(=O)N(C)C)c(C(C)(C)CC)c1	-47.3	-34.6	i	/	3.1	-1.7	-2.6	8.7
Cc1c(OCC(=O)NCCN2CCOCC2)ccc2c(-c3ccccc3)cc(=O)oc12	3.0	2.6	i	-10.8	2.4	9.9	-3.3	1.5
CC(C)(C)NC(=O)Cn1c(SCC(=O)Nc2nccs2)nc2ccccc21	-3.0	-0.7	i	/	-5.4	-9.7	0.1	-35.8
N#Cc1c(N)oc(-c2ccc3c(c2)OCO3)c1-c1ccc2c(c1)OCO2	-13.6	5.7	i	-19.8	-4.7	/	9.8	-38.6
CCOC(=O)c1oc2nc(C(C)C)c3c(c2c1N)CC(C)(C)OC3	1.6	-1.7	/	-16.5	5.2	/	-5.9	3.4
CSc1nc2cc(F)c(F)cc2n1C	-0.8	0.5	i	-23.7	-13.5	4.8	1.9	7.6
C=CCn1c(=O)c2ccccc2n2c(SCC(=O)Nc3sc(C)c(CC)c3C(=O)OCC)nnc12	-5.9	-5.5	i	/	-11.7	17.6	-4.0	26.7
CCOC(=O)c1c(NC(=O)COC(=O)c2ccccn2)sc2c1CCC2	3.7	4.6	i	-12.2	7.6	-6.9	15.1	-21.8
CN(Cc1nc2ccccc2c(=O)[nH]1)C(=O)c1ccc(S(=O)(=O)N2CCCC2)cc1	-0.2	1.1	/	-22.2	/	/	/	-7.2
CN(C1CCCCC1)S(=O)(=O)c1ccc2c(c1)c(=O)c(C(=O)N1CCc3ccccc3C1)cn2C	3.6	-3.0	i	-8.1	-8.5	6.4	-5.8	/
O=C1CC(c2ccccc2)C(c2ccccc2)=NN1 (stereo unspecified)	-3.2	-4.1	/	-7.6	/	/	/	-2.0
COc1ccccc1NC(=O)NC(N)=O	2.6	1.3	i	-7.4	1.2	-5.8	8.7	-97.5

(cont.)
SMILES	MT1-MMP act inh	MT1-MMP act inh RFP	Rce1 inhib	Yeast UUG start	eIF4H inh	CSC inhib	PABP polyA inh	HIV Env fusion
CCCOc1ccc(-c2nc(-c3ccc(N)cc3)cs2)cc1	/	/	i	/	-9.7	20.5	0.3	/
CSCC(=O)N1CCCC(N2CCN(c3cccc(C(F)(F)F)c3)CC2)C1 (stereo unspecified)	1.5	-2.8	i	-22.2	-4.1	0.2	1.7	2.0
C=CCn1c(=N)n(CC(=O)c2ccc(OC)cc2)c2ccccc21	0.7	0.5	i	/	-1.4	-3.5	7.5	10.9
Cc1scc(C(=O)O)c1-c1c(C(=O)O)csc1C	1.9	3.6	i	/	-1.1	-4.3	-1.2	3.9
CCN(CC)C(=O)Oc1ccc2ccccc2c1Br	-1.0	-3.2	i	/	-0.9	3.9	3.7	7.4
O=C(NCc1ccc(F)cc1)C1CCCN(c2nc3ccsc3c(=O)s2)C1 (stereo unspecified)	0.0	-2.2	i	/	-0.1	-5.5	-3.1	9.6
CCCN(C(=O)CCc1ccc(OC)cc1)c1c(N)n(Cc2ccccc2)c(=O)[nH]c1=O	-4.1	-0.1	/	-11.1	/	-18.2	/	-34.1
Cc1ccc(C(=O)Nc2cc3c(cc2Cl)OCCCO3)cc1	-1.6	-3.3	i	-17.3	-12.2	-22.0	-13.4	/
Oc1ccc(O)c(-c2cnns2)c1	-39.1	-14.8	i	/	24.2	3.4	4.3	21.7
O=C(OCC(=O)c1ccc(Cl)s1)c1ccccn1	3.5	3.0	i	-30.1	-0.4	/	6.4	-4.6
COc1ccc(Cc2ccc(OC)c(N)c2)cc1N	8.6	1.9	/	11.2	-2.0	6.7	3.6	/
CCc1c(C)sc(NC(=O)c2cc(C)no2)c1C#N	2.0	6.1	i	-11.7	-12.0	-3.7	11.3	0.0
O=C(COC(=O)c1ccc(NS(=O)(=O)c2ccc3c(c2)OCCO3)cc1)NC1CC1	-4.7	-0.7	i	-19.8	-8.7	1.8	-7.8	/
O=C(c1ccc(Cn2c(=O)[nH]c3ccccc3c2=O)cc1)N1CCN(c2ccccc2)CC1	-0.6	-6.3	i	479.9*	-8.1	-3.8	-2.4	20.5
COc1ccccc1C1C(C(C)=O)=C(O)C(=O)N1c1ccc(O)cc1 (stereo unspecified)	-1.0	-1.2	i	-3.0	-6.9	-16.9	-4.3	-7.1
COc1c(C)cccc1C(=O)NC(=S)Nc1ccc2c(c1)Cc1ccccc1-2	-2.3	10.8	/	-0.8	6.1	/	13.9	22.3
COCCCNC(=O)CN1C(=O)/C(=C/c2ccccc2C)Sc2ccccc21	0.2	-0.9	i	-12.1	1.8	-5.4	6.3	12.0
O=C(Nc1ccc2c(c1)OCO2)C1(S(=O)(=O)c2ccc(Cl)cc2)CC1	4.6	6.0	i	-18.6	-2.1	/	-1.3	-59.9
O=C(NC(=S)N(CCO)Cc1ccccc1)c1ccc(S(=O)(=O)N2CCCC2)cc1	3.5	2.9	/	/	-8.6	-1.1	-5.3	-17.2
O=S(=O)(c1ccc(F)cc1)N1CCN(CC2CC3C=CC2C3)CC1 (stereo unspecified)	2.6	-1.8	i	-11.6	4.2	-8.7	4.3	29.1
O=C1NNC(c2ccccc2)=N/C1=C\c1ccc(Cl)cc1	2.7	-3.5	i	-4.3	9.9	4.7	4.8	-5.4
COc1ccc(CCNS(=O)(=O)c2ccc3c(c2)n(C)c(=O)c(=O)n3C)cc1OC	3.7	4.9	/	8.4	-1.5	/	-10.5	-0.1
CC(C)(C)NS(=O)(=O)c1ccc(NC(=O)C(Sc2ccccc2)c2ccccc2)cc1 (stereo unspecified)	-25.6	-20.7	/	-2.6	7.6	52.3	-0.6	-45.4
NC(=O)c1ccsc1NC(=O)COC(=O)c1nc(Cl)ccc1Cl	0.2	3.1	i	-9.3	/	-14.9	/	-3.9
c1ccc(C2NCCn3cccc32)cc1 (stereo unspecified)	-7.7	-0.3	/	-11.2	-11.7	-10.4	7.9	/

The closing 5 records of the part above open the next one:
SMILES	MT1-MMP act inh	MT1-MMP act inh RFP	Rce1 inhib	Yeast UUG start	eIF4H inh	CSC inhib	PABP polyA inh	HIV Env fusion
O=C1NNC(c2ccccc2)=N/C1=C\c1ccc(Cl)cc1	2.7	-3.5	i	-4.3	9.9	4.7	4.8	-5.4
COc1ccc(CCNS(=O)(=O)c2ccc3c(c2)n(C)c(=O)c(=O)n3C)cc1OC	3.7	4.9	/	8.4	-1.5	/	-10.5	-0.1
CC(C)(C)NS(=O)(=O)c1ccc(NC(=O)C(Sc2ccccc2)c2ccccc2)cc1 (stereo unspecified)	-25.6	-20.7	/	-2.6	7.6	52.3	-0.6	-45.4
NC(=O)c1ccsc1NC(=O)COC(=O)c1nc(Cl)ccc1Cl	0.2	3.1	i	-9.3	/	-14.9	/	-3.9
c1ccc(C2NCCn3cccc32)cc1 (stereo unspecified)	-7.7	-0.3	/	-11.2	-11.7	-10.4	7.9	/
CN(C)CCCNS(=O)(=O)c1ccc(N2CCN(Cc3ccc4c(c3)OCO4)CC2)c([N+](=O)[O-])c1	3.1	-10.2	i	-11.1	-2.3	10.1	14.5	1.1
C[N+](C)(C)C/C=C1/COCO1	1.8	-0.1	i	/	-1.1	-12.8	47.1	/
CC(=O)OC1CSC2c3ccccc3C(=O)N2Cc2sccc21 (stereo unspecified)	3.4	6.0	i	/	-3.8	-10.3	0.1	13.5
CCCNC(=O)COc1ccccc1[N+](=O)[O-]	0.7	2.9	i	/	-3.1	-17.9	3.6	-24.7
O=C(NCc1ccc(F)cc1)C1CCN(S(=O)(=O)N2CCCC2)CC1	-1.6	-0.9	i	/	-6.9	-14.4	0.4	-0.9
CCCc1nnc(NC(=O)c2ccncc2)s1	-0.9	-1.6	i	/	-9.0	-5.0	4.3	/
COC(=O)CCC(=O)NC(=S)Nc1c(C)cccc1C	0.4	1.2	i	/	-10.8	7.8	-4.4	-1.4
O=C(Nc1nc(-c2ccccn2)cs1)c1cccc(-n2cnnn2)c1	6.1	-7.7	i	-17.5	21.1	31.8	-1.0	19.2
COc1cc(C(C2C(=O)CC(C)(C)CC2=O)C2C(=O)CC(C)(C)CC2=O)ccc1O	0.0	-1.4	i	2.7	-8.9	-13.7	-5.7	-12.5
O=S1(=O)NC2CCCCCN2c2ccc(F)cc21 (stereo unspecified)	8.7	6.7	i	-10.8	-4.4	0.0	-0.3	/
CC(C)(C)CC(=O)N1CCC(c2nc3c(nnn3Cc3c(F)cccc3Cl)c(=O)[nH]2)CC1	0.7	-1.2	i	5.8	0.7	-14.8	7.2	-33.1
Cn1c(=O)c2c(nc(OC/C=C/c3ccccc3)n2C)n(C)c1=O	4.1	3.7	i	5.2	/	-8.6	/	/
CC(OC(=O)c1oc2ccccc2c1COc1ccccc1)C(=O)NC(N)=O (stereo unspecified)	-10.8	-2.8	i	/	-2.3	-1.5	-1.7	14.8
Cc1cccc2cc(C#N)c(NCc3ccccc3)nc12	5.4	13.2	i	-10.2	-8.7	-9.8	3.5	4.3
O=C(COc1cccc2cccnc12)N/N=C/c1ccccc1O	3.2	-1.9	i	/	21.6	16.8	-3.6	-4.2
COc1ccc(C2OC(=O)CC2C(=O)N2CCN(c3cc(Cl)ccc3C)CC2)cc1OC (stereo unspecified)	0.6	0.7	i	-1.3	-2.4	-14.4	-2.0	-53.9
Cc1ccc(CC2CC(=O)N(CCc3ccccc3)C2=O)cc1 (stereo unspecified)	-0.1	0.7	i	-6.6	-5.4	-12.2	-6.8	17.3
COc1ccc(OC)c(NC(=O)Nc2cccnc2)c1	-2.6	2.8	i	-8.6	8.2	-13.6	-5.9	3.5
Cc1ccc2cc3c(NC(=O)C(C)C)nn(C)c3nc2c1	10.8	-1.1	i	-10.8	-2.1	-1.8	-0.2	/
Cc1ccccc1OCC1CNC(=O)O1 (stereo unspecified)	2.4	5.3	i	/	-7.6	-5.1	-3.4	5.2
CC1CC(C)CN(c2ncnc3c2cnn3C)C1 (stereo unspecified)	-2.4	0.9	i	/	-8.0	-9.7	11.9	4.6
